Marburg entry inh = inhibitors of Marburg virus binding or cell entry | Marburg virus pseudotyped entry inhibition, cell reporter; control for the full effect not named in the record; about a third of the inactives were read at about 46 µM | Potency, µM (top dose mostly 37.8 µM), inactives show at the highest dose activity change, negative = inhibition, hits mostly inhibitors | 300,000 compounds, 1.8% hits; active = well fitted inhibition curve with a large enough effect; inconclusive = small, poorly fitted or top-dose-only effect, or effect the other way; inactive = flat fitted curve, though single readings scatter; tested in HEK293 cells; about a fifth of its hits are not listed in these tables; also: % is scaled to controls: 0 for no effect and ±100 for the full control effect; luciferase read-out
SARS PLpro yeast = blocks SARS-CoV papain-like protease in a yeast assay | S. cerevisiae expressing SARS-CoV PLpro, growth rescue; control for the full effect not named in the record | Potency, µM (doses to about 32.9 µM), inactives show top-dose activity, positive = growth rescue | 330,000 compounds, 0.19% hits; also: 0% is about no effect; nearly all actives have a fitted effect of over 55% in size; growth read by luminescence after 48 h
Lassa entry inh = inhibitors of Lassa virus binding or cell entry; Potency, µM (highest dose often 37.9 µM), for the others: at the highest dose activity change, negative = inhibition, hits mostly inhibitors; AID 540256; Lassa virus pseudotype entry inhibition, cell reporter; control for the full effect not named in the record; 300,000 compounds, 1.2% hits; active means well fitted inhibition curve with a large enough effect; inconclusive means small, poorly fitted or top-dose-only effect, or effect the other way; inactive means flat fitted curve, though single readings scatter; tested in HEK293 cells; also: % is scaled to controls: 0 for no effect and ±100 for the full control effect; nearly all actives have a fitted effect of over 50% in size; luciferase read-out
RE007 growth inh = less growth of the S. pombe RE007 Vpr strain | S. pombe RE007 Vpr strain, BacTiter-Glo ATP luminescence, 24 h; control for the full effect not named in the record | Potency, µM (series often up to 92.2 µM), for the others: at the top dose activity change, negative = less growth | 360,000 compounds, 0.21% hits | AID 651644; active = well fitted falling curve with a large enough effect; inconclusive = small, poorly fitted or top-dose-only effect; inactive = no such curve, though single readings can be large or run the other way;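 also: % is scaled to controls: 0 for no effect and ±100 for the full control effect; nearly all actives have a fitted effect of over 50% in size; the assay follows cell death caused by Vpr and the record does not say whether a fall means rescue or toxicity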
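Fission yeast RE007 carrying one integrated HIV-1 vpr copy, seeded at OD 0.01 in PMG+AL medium with 23 nL pinned compound. Grown 24 h at 30 degrees; viability read by BacTiter-Glo luminescence after 5 min.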
Cruzain inh Det = cruzain (T. cruzi) inhibition with detergent; purified cruzain, Z-FR-AMC fluorescence, 0.01% Triton; Potency, µM, without a hit: max response, negative = inhibition, hits mostly inhibitors; 200,000 compounds, 0.43% hits; active = well fitted curve in the direction sought with a large enough effect; inconclusive = small, poorly fitted or top-dose-only effect, or another doubt; inactive = no such curve, though single readings can be large; an effect the other way counts as inactive or inconclusive;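 also: plate controls were neutral wells for no effect and buffer without enzyme for full effect; nearly all actives have a fitted effect of over 40% in size; top concentration of the series not given in the record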
Target sequence (P25779 123-467 limits assumed): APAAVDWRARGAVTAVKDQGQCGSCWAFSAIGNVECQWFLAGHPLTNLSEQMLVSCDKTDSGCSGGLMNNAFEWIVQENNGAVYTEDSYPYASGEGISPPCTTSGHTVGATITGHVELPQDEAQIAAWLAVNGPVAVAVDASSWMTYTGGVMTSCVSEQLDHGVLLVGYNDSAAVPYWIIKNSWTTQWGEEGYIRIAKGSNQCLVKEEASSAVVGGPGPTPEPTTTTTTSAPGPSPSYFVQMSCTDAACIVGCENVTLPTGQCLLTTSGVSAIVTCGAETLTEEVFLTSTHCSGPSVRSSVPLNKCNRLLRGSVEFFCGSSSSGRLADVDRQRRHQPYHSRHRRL
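Enzyme 1.5 nM, Z-FR-AMC 2 uM, NaOAc 100 mM pH 5.5, DTT 5 mM, Triton X-100 0.01%; 15 min RT compound preincubation; kinetic ex360/em450, 60 s delta.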
Cruzain noTriton = inhibitors of Trypanosoma cruzi cruzain without detergent; Potency, µM, for the others: max response, negative = inhibition, usual class: inhibitors; P25779; purified cruzain, Z-FR-AMC fluorescence, no detergent; 200,000 compounds, 2.3% hits; AID 1476; active = well fitted curve in the direction sought with a large enough effect; inconclusive = small, poorly fitted or top-dose-only effect, or another doubt; inactive = no such curve, though single readings can be large; an effect the other way counts as inactive or inconclusive;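 also: plate controls were enzyme without inhibitor for no effect and buffer without enzyme for full effect; nearly all actives have a fitted effect of over 40% in size; top concentration of the series not given in the record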
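Detergent-free condition (0.00005% Triton X-100) in acetate buffer pH 5.5 with DTT. 1.5 nM enzyme and compound were pre-mixed 15 min, then 2 uM Z-FR-AMC substrate added; reaction progress from fluorescence change between first and third reads (60 s).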
NS1 inh = inhibitors of influenza NS1 protein function; S. cerevisiae slowed by influenza A NS1, growth recovery by OD600; Potency, µM (highest dose often 46.1 µM), for the others: at the top dose activity, positive = more growth; 270,000 compounds, 0.4% hits; AID 2326; also: actives are rising curves; nearly all actives have a fitted effect of over 50% in size
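A cell-based growth assay was used: compounds that relieve NS1-induced slow growth of budding yeast raise OD600. Assay medium was yeast nitrogen base with ammonium sulphate and -URA supplement, pH 6.0, with 2% galactose.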
2A StopGo = FMDV 2A StopGo reporter, luciferase signal; human cells with a luciferase reporter of 2A StopGo recoding; control for the full effect not named in the record; Potency, µM (top dose mostly 57.9 µM), for the others: at the top dose signal change, negative = less light; 410,000 compounds, 1.2% hits; active = well fitted falling curve with a large enough effect; inconclusive = small, poorly fitted or top-dose-only effect; inactive = no such curve, though single readings can be large or run the other way; tested in HEK293T cells; also: % is scaled to controls: 0 for no effect and ±100 for the full control effect; nearly all actives have a fitted effect of over 45% in size; luciferase light after 4 h
Starred values were filed as active, the others as inactive; u = inconclusive; x = no result given; & = joins results of further samples; [ ] = another dose, or the depositor's remark. Unless noted, calls follow the shape of the dose curve; as a rule, active means well fitted rising curve with a large enough effect; inconclusive means small, poorly fitted or top-dose-only effect; inactive means no such curve, though single readings can be large or run the other way. Potency is read from the fitted curve at half-maximal effect. No enrichment for hits. Share with any hit: about 4.6%.

SMILES	Marburg entry inh	SARS PLpro yeast	Lassa entry inh	RE007 growth inh	Cruzain inh Det	Cruzain noTriton	NS1 inh	2A StopGo
CC1(C)C2CCC1(CS(=O)(=O)NC1CCCC1)C(=O)C2 (stereo not given)	4.0%[46.1 µM]	-3.7%	13.0%[46.1 µM]	1.7%	x	x	x	0.8%
Cc1ccc(C(=O)CSc2ccccn2)cc1	-2.1%	7.6%	-17.3%	u	-1.9%	-8.8%	-11.4%	7.4%
CCN(CC)CCCn1c2c(c(SCC(=O)Nc3nc4ccccc4s3)nc1=O)CCC2	u	5.5%	u	-27.3%	x	x	x	4.7%
Cc1ccc(C(=O)NCCCNC(=O)c2ccc(C)nc2)cc1	8.1%[46.1 µM]	-3.6%	4.0%	26.3%	x	x	4.1%	-5.0%
Cc1cccc(NC(=O)CSc2nnc(CN3CCOCC3)n2C)c1C	x	-0.1%	x	10.1%	x	x	0.8%	9.0%
C=CCN(c1ccccc1)S(=O)(=O)c1cccc(C(=O)NCC(c2ccc(OC)cc2)N2CCCCC2)c1 (stereo not given)	u	-4.3%	u	-8.5%	x	x	x	-5.8%
Oc1ccc(N=Nc2ccc3c(c2)OCCO3)c2ncccc12	x	3.6%	x	10.3%	x	x	-50.1%	3.98µM*
Nc1cc(N)nc(SCC(=O)NNC(=O)c2ccc(Cl)cc2)n1	3.0%	-4.0%	4.5%	1.1%	1.4%	-3.4%	-6.9%	7.0%
Cc1nnc(SCCCn2c(N3CCN(c4ccccc4)CC3)nc3c2c(=O)[nH]c(=O)n3C)s1	-9.6%&-9.6%	5.2%	-18.7%	-4.7%	2.9%	11.3%	-13.5%	-15.4%
O=C(Cc1ccc(Cl)cc1)Nc1ccc(N2CCN(C(=O)c3ccco3)CC2)cc1	u	1.7%	-10.6%	-7.0%	2.5%	-14.0%	-2.2%	-21.4%
CC(C)[C@H](NC(=O)N1CCn2c1nc1ccccc12)C(=O)N[C@@H](C(=O)O)c1ccccc1	x	3.4%	x	-18.8%	x	x	6.1%	-10.8%
CC(C)CN(CCNC(=O)CN1C(=O)COc2ccc(S(=O)(=O)N3CCC(C)CC3)cc21)CC(C)C	-12.6%[46.1 µM]	4.3%	18.3%[46.1 µM]	-16.6%	x	x	-6.4%	-18.7%
CS(=O)(=O)NCCNc1cc(Cl)ccc1[N+](=O)[O-]	13.0%[46.1 µM]	0.1%	-12.3%[46.1 µM]	3.0%	x	x	x	-4.8%
COCCN1C(=O)/C(=C2/C(=O)N(CC(=O)Nc3ccccc3Cl)c3ccccc32)SC1=S	-11.4%	-4.2%	-4.3%	0.3%	x	x	1.7%	-18.2%
COCCN1C(=O)c2oc3ccc(C)cc3c(=O)c2C1c1ccc(C(=O)OC)cc1 (stereo not given)	9.5%[46.1 µM]	x	14.0%[46.1 µM]	x	-1.1%	15.5%	x	-1.3%
O=C(CNC(=O)c1ccc(Br)o1)NC1CCCCC1	x	-6.3%	x	-3.3%	x	x	6.3%	47.6%[activator]
CC(C)NC(=O)Cn1cc(C(=O)c2ccccc2)c2ccccc21	x	-1.2%	x	-2.5%	x	x	14.2%	2.1%
COC(=O)c1cnn(-c2ccc(C(=O)Nc3cccc(C(C)=O)c3)cc2)c1N	x	-4.1%	20.6%[46.1 µM]	x	0.9%	23.2%	x	-8.0%
CCN(CC(=O)Nc1ccc(OC)cc1)C(=O)Cc1coc2cc(C)c(C)cc12	-15.4%	-3.3%	-14.9%	1.1%	x	x	x	-3.4%
COc1cccc(NC(=O)N2CCN(c3nc(-c4cccc(OC)c4)cs3)CC2)c1	x	-1.1%	x	-2.6%	x	x	-0.2%	31.6µM*
CCCCn1c(-c2ccc(OC)cc2)nc2c(=O)n(C)c(=O)[nH]c21	x	0.6%	x	1.3%	x	x	3.4%	-5.0%
CCC(=O)N1CC2(c3ccccc3)CN(C(=O)CC)CC(c3ccccc3)(C1)C2=O	x	-1.1%	x	-7.7%	x	x	1.5%	-1.3%
O=C(/C=C/c1ccc([N+](=O)[O-])cc1)Nc1ncc([N+](=O)[O-])s1	5.8µM*	-4.7%	u	-7.5%	x	x	x	-72.3%
CCNC(=S)N1CCCCC1CO (stereo not given)	x	0.5%	x	0.4%	x	x	2.4%	-26.4%
O=C1c2cccc(OCC(=O)N3CCCc4ccccc43)c2CCN1Cc1cccnc1	u	3.4%	u	7.4%	x	x	x	28.2µM*

Four structures from above, sorted by molar mass, largest number first.
SMILES	Marburg entry inh	SARS PLpro yeast	Lassa entry inh	RE007 growth inh	Cruzain inh Det	Cruzain noTriton	NS1 inh	2A StopGo
CCN(CC)CCCn1c2c(c(SCC(=O)Nc3nc4ccccc4s3)nc1=O)CCC2	u	5.5%	u	-27.3%	x	x	x	4.7%
O=C(Cc1ccc(Cl)cc1)Nc1ccc(N2CCN(C(=O)c3ccco3)CC2)cc1	u	1.7%	-10.6%	-7.0%	2.5%	-14.0%	-2.2%	-21.4%
COC(=O)c1cnn(-c2ccc(C(=O)Nc3cccc(C(C)=O)c3)cc2)c1N	x	-4.1%	20.6%[46.1 µM]	x	0.9%	23.2%	x	-8.0%
Cc1ccc(C(=O)NCCCNC(=O)c2ccc(C)nc2)cc1	8.1%[46.1 µM]	-3.6%	4.0%	26.3%	x	x	4.1%	-5.0%

(listing goes on)
SMILES	Marburg entry inh	SARS PLpro yeast	Lassa entry inh	RE007 growth inh	Cruzain inh Det	Cruzain noTriton	NS1 inh	2A StopGo
C/C(=N\NC(=O)c1nc2ccccn2c1C)c1cccc([N+](=O)[O-])c1	2.4%[46.1 µM]	-0.7%	u	-26.3%	x	x	x	u
CC(=O)c1cccc(OCc2cc(C(=O)N(C)CCc3ccccn3)no2)c1	-0.9%[46.1 µM]	-1.5%	13.6%[46.1 µM]	0.1%	x	x	-0.1%	-17.7%
O=C(NCC1OCCCN1S(=O)(=O)c1cc(F)ccc1F)C(=O)NC1CCCC1 (stereo not given)	14.3%	0.7%	-0.9%	11.2%	x	x	17.7%	-1.7%
Cc1sc(NC(=O)CS(=O)(=O)c2ccccc2)c(C#N)c1C	2.9%	-2.4%	7.8%	8.8%	x	x	x	62.8%[activator]
CC(C)/C=C/CN1CCN(CCCc2ccccc2)C(CCO)C1 (stereo not given)	-16.1%	-1.3%	u	-11.1%	x	x	-3.0%	0.0%
CCCOc1ccc(/C=N/NC(=O)CN2CCCCC2)cc1	10.3%	0.9%	-1.5%	-16.5%	x	x	-6.8%	-12.3%
COc1ccc(C(=O)CC2(O)C(=O)N(CCc3ccccc3)c3ccc(Br)cc32)cc1OC (stereo not given)	u	x	u	x	-9.6%	u	x	-26.0%
COc1cc(OC)cc(-c2cc3nc(C)c(CCC(=O)NC(C)CCc4ccco4)c(C)n3n2)c1 (stereo not given)	u	1.7%	10.0%	12.8%	-16.5%	u	-11.2%	u
Cc1ccc(S(=O)(=O)NCC(=O)Nc2cccnc2)cc1C	-1.4%	2.3%	-11.4%	-4.5%	x	x	x	-3.6%
CCc1ccc(NC(=O)CN(c2ccccc2)S(=O)(=O)N(C)C)cc1	-8.5%[46.1 µM]	0.4%	16.1%[46.1 µM]	4.1%	x	x	3.7%	-3.1%
Cc1ccc2[nH]c(=O)c(CN(Cc3cccs3)Cc3nnnn3Cc3ccccc3)cc2c1	u	-0.2%	u	-2.9%	-3.8%	3.2%	u	x
CCOc1ccc(NC(=O)CSC2=Nc3ccccc3C3=NC(CC(=O)NCc4ccc5c(c4)OCO5)C(=O)N23)cc1 (stereo not given)	x	x	-17.6%[46.1 µM]	x	-8.6%	12.7%	x	0.0%
Cc1ccc(CNC(=O)C2CCN(S(=O)(=O)c3cnc[nH]3)CC2)cc1	11.7%	7.2%	23.5%	-1.3%	1.6%	1.7%	3.5%	x
CCOC(=O)C1(CC2CC2)CCN(Cc2cnc(-c3ccccc3C)nc2)CC1	x	-0.5%	x	-6.3%	x	x	-3.1%	u
Cc1ccc(S(=O)(=O)N2CCCCC2)cc1NC(=O)CN1C(=O)CN(C)C1=O	4.7%[46.1 µM]	-0.1%	-4.8%	3.5%	x	x	x	18.0%
O=C(Nc1nnc(-c2ccco2)o1)C1CCCCC1	x	-2.5%	x	-9.0%	1.6%	4.0%	-60.4%	33.7%[activator]
Cc1ccc2cc3c(N)[nH]nc3nc2c1	9.1%	4.6%	10.7%	-5.3%	-2.3%	-10.5%	3.0%	20.0%
O=C(N/N=C/c1cccc(Cl)c1Cl)Nc1ccccc1	19.3%	-14.3%	5.4%	19.2%	-0.5%	u	9.9%	55.0%[activator]
Nc1c(C(=O)NCc2ccco2)c2nc3ccccc3nc2n1CCN1CCCCC1	8.2µM*	-1.1%	-2.3%	0.3%	-11.0%	-8.7%	15.7%	x
CCN1C(=O)C(CC(=O)Nc2ccc(Cl)cc2)N(NC(=O)c2ccncc2)C1=S (stereo not given)	-2.4%	0.5%	-0.7%	15.3%	x	x	5.7%	5.9%
OCCNC(=S)NCc1ccccc1	x	0.2%	x	-4.8%	x	x	3.0%	10.0%
COc1ccc(-c2nc(SC(C)C(=O)Nc3ccc(NC(C)=O)cc3)n[nH]2)cc1 (stereo not given)	20.9%	9.8%	u	-14.9%	x	x	x	-8.1%
O=C(CN1CCOCC1)N1CCN(c2nnc(-c3ccccc3)c3ccccc23)CC1	-0.9%	1.4%	6.4%	6.1%	1.4%	-1.8%	1.7%	-10.1%
O=C(Nc1nccs1)C1CCN(S(=O)(=O)c2c(Cl)cccc2Cl)CC1	u	0.7%	u	1.6%	-4.8%	-19.3%	-16.7%	u
COc1ccc(OC)c(S(=O)(=O)NCc2cn3ccsc3n2)c1	-2.8%	0.9%	-4.8%&0.8%	9.1%	-1.7%	-8.8%	-14.1%&-4.7%	13.3%
CC1CC(C)CN(S(=O)(=O)c2ccc(C(=O)Nc3sccc3C(N)=O)cc2)C1 (stereo not given)	x	4.7%	x	-6.8%	-3.5%	14.5%	2.8%	-28.1%
Cc1ccc(C)c2sc(NC(=O)CN3C(=O)CCC3=O)nc12	x	2.8%	x	1.2%	x	x	u	-2.3%
